RanGTP-Impb inh = inhibitors of RanGTP-importin-beta interaction, primary screen, biochemical, FRET, CFP-Ran, YFP-importin-beta, homogeneous | cell-free CFP-Ran/YFP-importin-beta FRET ratio | inhibition, % (no concentration beside the values) | 1.1% of 300,000 active;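 active means most replicates above 15%; inconclusive means exactly half above 15%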;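 further: 0% = DMSO wells and 100% = Ran loaded with GDP instead of GTP; wells of about 40 µL received 100 nL stock; the first replicate is given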
Beta cell apopt = blocks beta cell apoptosis | AID 435005 | protection from apoptosis, % (concentration not given with the values) | INS-1E cytokine-induced death, ATP luminescence, 48 h; percent of positive-control rescue, neutral wells zero | 0.8% of 300,000 active;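 active means all replicates at 75% or more, or half of them and the mean; inconclusive means half reach 75% but not the mean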;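 further: 0% = cytokine-treated negative control wells and 100% = positive control rescue; higher means more ATP so stronger rescue from cytokine killing; wells of about 40 µL received 100 nL stock; the first replicate is given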
A1 inh = inhibitors of the anti-apoptotic protein A1, read as caspase activation; MEF A1-2A-BIM cells, Caspase-Glo 3/7 luminescence, 3 h; percent of clofoctol response, vehicle zero; caspase activation, % (test concentration not listed); 0.066% of 330,000 active;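 active means over half of replicate activation scores above 10%, or exactly half above 10 with the replicate mean above 10; inconclusive means replicate mean below 10 yet half the replicates above 10; inactive means over half of replicates below 10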;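 further: wells of about 30 µL received 50 nL stock; many hits fall short of the cut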
Vif A3G = inhibitors of Vif binding to APOBEC3G peptide, primary screen, biochemical, TR-FRET, GST-Vif 1-94, biotin-A3G peptide, dose response retest (AID 1117319); one-dose inhibition, %; IC50 in µM for titrated hits; 0.57% of 260,000 active; TR-FRET GST-Vif / biotin-A3G peptide binding; higher % means a stronger effect; test concentration not given here; strong numbers were not always called active;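 active means above the screen mean plus three standard deviations and confirmed in dose response; inconclusive means results disagree or hit not tested in dose response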;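 further: Vif residues 1-94 fused to GST binding biotinylated APOBEC3G peptide 110-148; 0% = full assay without inhibitor and 100% = GST in place of GST-Vif; retest series ran down from 100 µM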
rRNA inh HTS = inhibitors of bacterial rRNA selective over humanized ribosomes; E. coli WT GFP vs humanized-ribosome RFP mutants, fluorescence, 24 h; active compounds read low; DMSO median 0, no signal -100; GFP signal change (wild-type ribosome), % (test concentration not listed); 1.6% of 350,000 active; AID 720706;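 active means significant combined selectivity score with lowered wild-type GFP, culture density cut under 30%, mutant RFP and density less affected; inactive means any of these conditions unmet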; further: one replicate is shown; some compounds called inactive have numbers as strong as hits
AF4-AF9 inh = MLL-AF4/AF9 protein interaction inhibition | inhibition, % at 10 µM | P42568 | AlphaScreen, biotin-AF4 peptide binding to FLAG-AF9 | AID 651704 | 0.47% of 350,000 active;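 active means every replicate reaching a set inhibition limit, whatever the replicate mean, cut at about 25% in these data; inconclusive means mean inhibition reaches that limit but some replicates miss it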;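 further: 0% = plate neutral control median and 100% = total signal loss; the record names both 10 and 1 µM as test concentration; the first replicate is given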
Target sequence (P42568 whole entry, looked up): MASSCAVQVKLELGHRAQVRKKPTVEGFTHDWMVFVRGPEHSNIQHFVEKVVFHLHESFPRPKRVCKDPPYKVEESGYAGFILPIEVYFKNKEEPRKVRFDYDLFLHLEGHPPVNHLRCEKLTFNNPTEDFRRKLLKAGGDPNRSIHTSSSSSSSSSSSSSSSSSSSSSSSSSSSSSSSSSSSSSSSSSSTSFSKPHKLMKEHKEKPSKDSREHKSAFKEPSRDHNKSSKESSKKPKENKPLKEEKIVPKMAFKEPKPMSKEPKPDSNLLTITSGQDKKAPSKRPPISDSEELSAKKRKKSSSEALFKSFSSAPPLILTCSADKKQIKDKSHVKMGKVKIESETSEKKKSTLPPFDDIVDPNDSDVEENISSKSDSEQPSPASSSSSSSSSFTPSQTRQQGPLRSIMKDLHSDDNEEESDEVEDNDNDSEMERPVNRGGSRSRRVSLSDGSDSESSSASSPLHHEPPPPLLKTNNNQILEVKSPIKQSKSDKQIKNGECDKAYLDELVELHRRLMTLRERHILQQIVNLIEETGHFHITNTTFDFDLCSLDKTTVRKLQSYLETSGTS
Calb FLC = affects C. albicans growth with fluconazole. C. albicans CaCi-2 (fluconazole-resistant clinical isolate) + fluconazole, Alamar Blue growth, 48 h. growth inhibition, % (test concentration not listed). 0.57% of 300,000 active. AID 1979;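 active means most replicates above 75%; inconclusive means exactly half above 75%; inactive means most below 75%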;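 further: all wells also contain fluconazole at 8 µg/ml as a sub-toxic cotreatment; 0% = median of DMSO wells and 100% = median of geldanamycin control wells; wells of about 8 µL received 7.5 nL stock; the first replicate is given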
T cruzi inh = blocks replication of Trypanosoma cruzi; inhibition, % (no concentration beside the values); AID 1885; T. cruzi beta-gal in NIH3T3, luminescence, 90 h; 1.4% of 300,000 active;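 active means mean inhibition across valid replicates above about 55%, limit read from the data; inconclusive means mean below that limit but half or more replicates reach it; inactive means mean below it, under half of replicates reach it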;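 further: signal also drops with host cell toxicity which is not excluded here; 0% = plate median of DMSO wells and 100% = zero luminescence signal; higher percent means less beta-gal luminescence so fewer parasites; stock transfer was 50 nL into about 50 µL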
rRNA inh HTS OD600 = second read-out of rRNA inh HTS, no call of its own (marks repeat the call); OD600 change, %; measured here: OD600 growth;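 optical density of the mix in the first replicate; 0 = DMSO median and -100 = no signal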
rRNA inh HTS RFP = also measured in rRNA inh HTS; calls as there; RFP signal change, %; measured here: RFP humanized mutant strains;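 first replicate; 0 = DMSO median and -100 = no signal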
* = called active by the depositor; u = inconclusive; x = no result given.

SMILES	RanGTP-Impb inh	Beta cell apopt	A1 inh	Vif A3G	rRNA inh HTS	rRNA inh HTS OD600	rRNA inh HTS RFP	AF4-AF9 inh	Calb FLC	T cruzi inh
C=CC1CN(CC(=O)OC)S(=O)(=O)c2ccccc21 (stereo unspecified)	-1.0	-3	1.1	x	19	-1	0.4	-4.2	-6	0
CN(C)/C=C/C(=O)/C=C/c1cn(-c2ncc(C(F)(F)F)cc2Cl)c2ccccc12	2.1	5	0.2	19%	x	x	x	x	3	8
Clc1cncc(Cl)c1N/N=C/c1ccncc1	3.1	-25	-1.2	6%	-5	2	0.5	-1.1	4	3
CC1CN(C(=O)C(C)N2C(=O)c3ccccc3C2=O)CC(C)O1 (stereo unspecified)	1.9	-7	-0.5	16%	x	x	x	x	-7	11
Cc1cc(Br)ccc1NC(=O)c1sc2ncn(CC(=O)N3CCN(c4ccccn4)CC3)c(=O)c2c1C	-2.4	4	0.1	x	12	-1	3.2	-19	1	1
CC(=O)/C=C/n1c(=S)oc2ccccc21	-2.1	100*	1.6	-5%	-3	0	0.2	-9.1	u	21
CCO/C(C)=N/n1c2nc3ccccc3nc2c2c(=O)n(C3CCCC3)c(C)nc21	u	4	0.1	-1%	x	x	x	x	4	5
O=c1[nH]c(CN2CCN(c3ncccn3)CC2)nc2c(Br)cc(Br)cc12	3.2	5	0.9	-12%	6	-1	-3.6	-5.4	0	1
COCCNC(=O)Nc1ccc2nc(-c3ccco3)c(-c3ccco3)nc2c1	x	-3	-0.1	0.25µM*	-6	18	-2.2	-5.5	x	x
Cc1cc(C)c2c(n1)SCC(=O)N2CC(=O)Nc1ccccc1Cl	0.6	-1	0.2	2%	2	3	0.0	-2.5	8	2
C/C(=N\NC(=O)CSc1nc2ccccc2[nH]1)c1ccncc1	0.2	-3	-0.2	2%	5	1	1.2	-0.2	12	5
O=C(CN1CCN(S(=O)(=O)c2ccc(Cl)cc2)CC1)Nc1ccc(N2CCOCC2)cc1	-0.1	-4	0.7	x	-4	1	-4.7	1.6	-8	14
O=S(=O)(c1cc(F)ccc1F)N1CCC2(CC1)OCCN2S(=O)(=O)c1cccs1	-0.5	0	-0.3	-12%	-19	-27	-4.5	-0.4	-2	7
CCOC(=O)C1=NN(C(=O)Cc2ccccc2)C(O)(C(C)(C)C)C1 (stereo unspecified)	2.1	-3	0.3	x	1	-14	-0.6	-0.9	-12	8
CCn1cc(C(=S)N2CCC(C(N)=O)CC2)c2ccccc21	-5.7	-11	0.4	x	-2	-2	0.1	1.9	-8	0
COc1ccc(OCc2nnc(NC(=O)Nc3ccc(F)cc3)s2)cc1	3.2	-9	-0.2	-3%	x	x	x	x	6	-19
CCCCCN(C(=O)CCC(=O)OC(C)C(=O)NCc1ccccc1)c1c(N)n(CCCC)c(=O)[nH]c1=O (stereo unspecified)	0.2	x	0.9	-5%	-6	-7	-2.7	-0.4	5	2
CCOc1cc2c(C#N)c(N3CCOCC3)nc(N)c2c(N)n1	3.3	-4	0.8	-8%	x	x	x	x	6	37
COc1cccc(C2(O)CCN(C(=O)C(C)C)CC2)c1	0.3	-5	1.2	x	15	0	-2.4	-3.8	-1	-17
CCC(=O)C1CCCN(C(=O)CCc2nnc(C3(c4ccc(Cl)cc4)CCC3)o2)C1 (stereo unspecified)	-2.5	-1	-1.0	8%	-4	6	4.5	0.6	8	13
Cc1cc(O)c(C(=O)c2ccccc2C(=O)O)cc1C	-0.5	x	0.1	25%	x	x	x	x	3	-3
Brc1cccc(OCCCNC2CCCC2)c1	-15	0	0.3	x	-5	-5	7.1	0.5	2	6
Cc1cccc(N2CCN(CC(=O)N(C3CCCC3)C3CCS(=O)(=O)C3)CC2)c1C (stereo unspecified)	x	-1	0.4	x	2	4	0.1	4.5	x	x
COc1cc(OC)c(C2=NOC(C(=O)Nc3c(C)nn(CC(=O)N4CCCC4)c3C)C2)cc1Cl (stereo unspecified)	3.1	2	1.2	-2%	x	x	x	x	6	-2
Cc1c(C(=O)N2CCN(c3ccc(F)cc3)CC2)sc2ncnc(N3CCN(c4ccccn4)CC3)c12	-0.9	11	-0.7	-7%	-6	-24	6.9	5.1	11	23

Next compounds follow:
SMILES	RanGTP-Impb inh	Beta cell apopt	A1 inh	Vif A3G	rRNA inh HTS	rRNA inh HTS OD600	rRNA inh HTS RFP	AF4-AF9 inh	Calb FLC	T cruzi inh
Cc1ccc(O)c(-c2cc(-c3ccccc3[N+](=O)[O-])[nH]n2)c1	1.7	-7	-0.8	x	x	x	x	x	13	-5
CCSc1nnc2nc(C)cc(C)n12	-2.1	-4	0.2	16%	x	x	x	x	-1	-5
COc1ccc(C2CC(c3ccccc3)=NN2C(=O)CCC(=O)O)cc1 (stereo unspecified)	6.6	-3	0.3	15%	-6	-1	-0.1	-1.4	0	10
CCOc1ccc(/C=C/C(=O)Nc2cccc(C(C)=O)c2)cc1	-1.3	16	-4.1	x	x	x	x	x	2	-8
CCC(=O)Nc1nnc(SCC(=O)NCC2CCCO2)s1 (stereo unspecified)	-0.6	-2	-0.8	2%	8	12	-1.7	0.4	-2	-4
CCC(=O)OCC(=O)Nc1ccc(OC)cc1[N+](=O)[O-]	-0.4	-2	-0.1	24%	7	15	1.6	-15	-3	-15
CC(C)CN1C(=O)C(=O)N(CC(=O)N(C)CC(=O)Nc2ccc(F)cc2)C1=O	x	-10	0.0	-7%	14	14	0.9	-0.3	x	x
Cc1cccc(Nc2nc(C)cc(C)c2C#N)c1	2.0	x	0.7	-2%	6	-1	-2.2	0.9	-2	-4
c1ccc(-c2ccccc2OCCOCCN2CCc3ccccc3C2)cc1	-0.6	11	1.0	0%	-58	-79	-19	4.9	0	29
O=C(Cc1c2ccccc2nc2ccccc12)c1ccccc1	22*	4	0.5	8%	x	x	x	x	4	1
CC(C)(C)c1csc(N/N=C/c2cccnc2)n1	1.1	18	0.4	12%	x	x	x	20	5	28
COc1ccccc1CNC(=O)c1cccc(S(=O)(=O)N2CCN(c3ccc(F)cc3)CC2)c1	x	7	1.1	-4%	3	6	0.8	2.0	x	x
Cc1ccc2cc(C#N)c(N3CCN(C(=O)c4ccccc4)CC3)nc2c1	7.1	11	0.1	x	-33	-37	-5.0	-8.5	-53	0
CSCCC(NC(=O)c1ccco1)C(=O)NC1CCC(C)CC1 (stereo unspecified)	x	2	0.3	x	10	15	-0.8	0.7	x	x
O=c1[nH]nc(CNc2ccc(Cl)cc2Cl)c2ccccc12	-0.1	1	0.6	2%	0	2	0.1	-1.1	46	3
O=C(CNC(=O)c1ccccc1Br)N/N=C/c1cccs1	-2.1	0	-0.7	-1%	10	13	1.0	-1.6	3	-11
COc1ccc(-n2c(CNc3ccc(C)cc3)nnc2SCc2ccccc2)cc1	2.4	-5	1.0	x	x	x	x	x	2	13
C1CCN(c2nc(N3CCCC3)nc(N3CCNCC3)n2)C1	2.8	x	x	23%	x	x	x	x	2	-13
CC(=O)c1cc(CN2C(=O)c3ccccc3C2=O)cs1	-3.2	-1	-0.9	-5%	x	x	x	x	-7	-7
O=C(NNC(=O)c1ccccc1Br)c1ccc(SCC2CCCO2)c([N+](=O)[O-])c1 (stereo unspecified)	2.3	-1	0.0	-3%	x	x	x	x	6	1
CCNc1nc2nc3ccc(C)cn3c(=O)c2cc1C(=O)NCC1CCCO1 (stereo unspecified)	185*	9	0.2	5%	13	8	-5.8	-4.8	-21	-8
Cc1ccc(-n2c(N)c(C(N)=O)sc2=S)cc1	3.2	-10	-1.0	1%	x	x	x	x	-14	-13
COc1ccc(CNCCC(c2ccccc2)c2ccc3c(c2)OCO3)cc1 (stereo unspecified)	0.3	85*	0.0	-6%	-59	-83	-27	25*	22	59*
Cc1ccc(S(=O)(=O)Nc2cc(C(F)(F)F)ccc2N2CCOCC2)cc1	4.1	7	0.4	2%	11	14	-8.4	-1.4	3	11
CC(=O)c1ccc(Nc2nc(-c3cccnc3)cs2)cc1	-0.8	x	-0.6	x	19	22	-0.6	-22	1	29

Marked active in RanGTP-Impb inh (from the list above):
Molecule	RanGTP-Impb inh	Vif A3G	rRNA inh HTS	rRNA inh HTS OD600	rRNA inh HTS RFP	AF4-AF9 inh
O=C(Cc1c2ccccc2nc2ccccc12)c1ccccc1	22*	8%	x	x	x	x
CCNc1nc2nc3ccc(C)cn3c(=O)c2cc1C(=O)NCC1CCCO1 (stereo unspecified)	185*	5%	13	8	-5.8	-4.8

Back to the main list with the 5 entries that preceded the break.
SMILES	RanGTP-Impb inh	Beta cell apopt	A1 inh	Vif A3G	rRNA inh HTS	rRNA inh HTS OD600	rRNA inh HTS RFP	AF4-AF9 inh	Calb FLC	T cruzi inh
CCNc1nc2nc3ccc(C)cn3c(=O)c2cc1C(=O)NCC1CCCO1 (stereo unspecified)	185*	9	0.2	5%	13	8	-5.8	-4.8	-21	-8
Cc1ccc(-n2c(N)c(C(N)=O)sc2=S)cc1	3.2	-10	-1.0	1%	x	x	x	x	-14	-13
COc1ccc(CNCCC(c2ccccc2)c2ccc3c(c2)OCO3)cc1 (stereo unspecified)	0.3	85*	0.0	-6%	-59	-83	-27	25*	22	59*
Cc1ccc(S(=O)(=O)Nc2cc(C(F)(F)F)ccc2N2CCOCC2)cc1	4.1	7	0.4	2%	11	14	-8.4	-1.4	3	11
CC(=O)c1ccc(Nc2nc(-c3cccnc3)cs2)cc1	-0.8	x	-0.6	x	19	22	-0.6	-22	1	29
CC1CCN(C(=O)CCC(=O)Nc2nnc(C(F)(F)F)s2)CC1	-0.5	-1	0.3	x	x	x	x	x	x	10
COc1ccc(C(=O)NCc2nnc(SCC(=O)NCc3ccco3)o2)cc1OC	0.6	0	4.0	x	8	7	0.0	-3.8	24	8
COc1cccc(CN2CCCN(S(=O)(=O)c3ccc(Br)cc3)CC2)c1	-4.0	-1	-1.1	6%	x	x	x	x	0	9
O=C(Nc1ccc2nc(-c3ccc(Br)o3)[nH]c2c1)c1cccs1	3.0	22	-0.3	u	x	x	x	x	0	69*
Cn1nnnc1SCC(=O)Nc1nn(-c2ccccc2)nc1C(N)=O	18*	-6	0.1	9%	3	2	-1.6	0.6	-19	-18
CCOC(=O)CC(=O)CSc1nc(C)cc(C)c1C#N	u	x	0.3	-3%	x	x	x	x	54	5

Compound activity from PubChem BioAssay.

An excerpt, so the mix of outcomes need not match the whole.
